Screens from PubChem BioAssay.
Sa growth inh – inhibitors of Staphylococcus aureus growth at 42 °C. S. aureus RN4220 growth, OD600, 20 h; hits give low values. relative growth, % (test concentration not listed). 0.53% of 170,000 active;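 active = growth at 42 °C up to 50% and 20 or more points under that at 30 °C, or under 10% at both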;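 also: 300 nL library stock went into each well; scaled to the means of positive and negative controls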
GIV-Gai inh – blocks GIV peptide binding to rat Galpha-i3 | P08753 | 0.42% of 210,000 active | percent of control (FP), % (no concentration beside the values) | Galpha-i3/FITC-GIV peptide fluorescence polarization, 90 min; hits give low values; scaled: aluminum fluoride 0%, vehicle 100%;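 active = replicate mean at 85% of control or lower, very high polarization wells dropped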;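 also: wells of about 15 µL received 100 nL stock; the first replicate is given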
Target sequence (P08753 whole entry, looked up): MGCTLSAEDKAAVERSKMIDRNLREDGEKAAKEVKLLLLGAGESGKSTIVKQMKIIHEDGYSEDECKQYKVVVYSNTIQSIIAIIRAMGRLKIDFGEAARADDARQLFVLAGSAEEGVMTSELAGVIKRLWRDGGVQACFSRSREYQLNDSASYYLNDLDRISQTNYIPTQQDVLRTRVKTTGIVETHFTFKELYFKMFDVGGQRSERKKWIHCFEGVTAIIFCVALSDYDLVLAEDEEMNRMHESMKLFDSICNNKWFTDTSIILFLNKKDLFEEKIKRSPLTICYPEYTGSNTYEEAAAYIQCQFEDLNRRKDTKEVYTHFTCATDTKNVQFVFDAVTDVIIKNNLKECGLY
HCMV UL50-53 inh – disrupts HCMV UL50-UL53 complex binding. AID 1918969. HTRF UL50-UL53 interaction, normalized percent inhibition. 0.15% of 190,000 active. inhibition, % (no concentration beside the values);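 active = both replicates at 50% or more, plus weaker picks with an unusually low signal ratio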;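 also: stock transfer was 100 nL into about 20 µL; 0% = negative control wells and 100% = wells with untagged competitor protein; inactives centre near -12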
Sa growth inh second temp – second read-out of Sa growth inh, no call of its own (marks repeat the call); relative growth, %; measured here: growth at 30 °C;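 optical density after 20 h as mean of two plates; 100% = untreated growth and lower means inhibition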
The depositor's hits bear a star; x = no result given; & = joins results of further samples.

Value order: Sa growth inh	Sa growth inh second temp	GIV-Gai inh	HCMV UL50-53 inh
CCOc1ccccc1C(=O)Nc1nnc(C2CC(=O)N(c3ccc(C)cc3)C2)o1 (configuration not stated)
→ x	x	102	-28
CCC(=O)N1c2ccccc2NC2=C(C(=O)CC(c3ccccc3)C2)C1c1ccc2c(c1)OCO2 (configuration not stated)
→ x	x	112	-4
COC(=O)CC1(c2ccc(Cl)cc2)C(=O)c2ccccc2C1=O
→ 89	85	97	x
S=c1[nH]nc(Nc2ccccc2)s1
→ 77	64	97	-38
CNC(=O)N1CCCC(c2cccc(C(=O)NCCCN3CCCC3=O)c2)C1 (configuration not stated)
→ x	x	109	-10
CCOC(=O)c1cc(S(=O)(=O)NC2CCCc3ccccc32)cn1C (configuration not stated)
→ 95	79	100	-18
CCc1cnc2c(c1SCC(=O)Nc1ccc(Cl)cc1)c(=O)n(C)c(=O)n2C
→ 93	99	106	x
COc1ccc(S(=O)(=O)NCCc2sc(C)nc2C)cc1
→ 111	89	105	x
C1=CC(=C2SCCS2)C=C1
→ 92	89	104	-58
CNS(=O)(=O)c1cn(CC(=O)Nc2cccc(C(F)(F)F)c2)cc1S(=O)(=O)NC
→ 108	88	101	x

Structural class: the compounds so far with four or more nitrogen atoms
Value order: Sa growth inh	Sa growth inh second temp	GIV-Gai inh	HCMV UL50-53 inh
CCOc1ccccc1C(=O)Nc1nnc(C2CC(=O)N(c3ccc(C)cc3)C2)o1 (configuration not stated)
→ x	x	102	-28
CNC(=O)N1CCCC(c2cccc(C(=O)NCCCN3CCCC3=O)c2)C1 (configuration not stated)
→ x	x	109	-10
CCc1cnc2c(c1SCC(=O)Nc1ccc(Cl)cc1)c(=O)n(C)c(=O)n2C
→ 93	99	106	x
CNS(=O)(=O)c1cn(CC(=O)Nc2cccc(C(F)(F)F)c2)cc1S(=O)(=O)NC
→ 108	88	101	x

The listing continues:
Value order: Sa growth inh	Sa growth inh second temp	GIV-Gai inh	HCMV UL50-53 inh
Cn1c(=O)c2c(nc(SCC(=O)Nc3ccccc3F)n2Cc2ccc(Cl)cc2)n(C)c1=O
→ 122	94	110	-37
CCCCOC(=O)c1ccc(OC(=O)c2sc3ncn(Cc4ccccc4Cl)c(=O)c3c2C)cc1
→ 95	85	105	x
COC(=O)c1cc(-c2ccc(Cl)cc2)nc2ccccc12
→ 100	65	100	x
Cc1cc(C)n2c(Nc3ccccc3C)c(-c3cccs3)nc2n1
→ 96	101	99	6
CN1N=C(c2ccc3c(c2)OCCO3)CCC1=O
→ 84	91	x	-24
CCn1c(-c2ccccc2)c(C(=O)CN2CCN(S(=O)(=O)c3cccs3)CC2)c2ccccc21
→ 118	93	x	-18
Fc1ccc(-c2n[nH]c(=S)n2CCN2CCOCC2)cc1
→ 91	94	x	0
N#Cc1c(-c2ccccc2)nc(N2CCCC2)[nH]c1=O
→ 89	84	108	x
COC(=O)c1ccc(N2CCN(Cc3ccccc3)CC2)c(N)c1
→ 86	89	99	-15
Cc1ccc(C#N)c(=O)[nH]1
→ 110	79	103	-5

Later entries
Value order: Sa growth inh	Sa growth inh second temp	GIV-Gai inh	HCMV UL50-53 inh
CCCNC(=O)Nc1cn(CC(C)C)c(=O)c2ccccc12
→ 96	89	87	49
Cc1ccc2c(C(=O)CSc3ccccc3)c(C)[nH]c2c1
→ 105	104	99	x
CC(=O)OCC(=O)Nc1ccccc1C(F)(F)F
→ 89	87	x	-9
CCN(Cc1ccccc1)C(=O)c1ccc(N2CCNCC2)c(NS(=O)(=O)c2ccc(F)cc2)c1
→ x	x	103	-6
CC1(C)CC2=NN(c3ccccc3)P(=O)(Nc3ccccc3)C2=C(N2CCOCC2)C1 (configuration not stated)
→ 96	101	x	-17
COc1ccc2[nH]cc(CCSC(=N)N)c2c1
→ 107	97	99	-3
COc1ccc(NC(=O)COC(=O)/C=C/c2ccco2)cc1
→ 93	90	x	-41
N#Cc1cnn(-c2nc(-c3ccc(Br)s3)cs2)c1N
→ 95	91	x	-20
CC1CCCCC1NS(=O)(=O)c1cc(F)ccc1CN1C(=O)c2cccnc2C1=O (configuration not stated)
→ 103	105	101	1
COc1ccc(CN2CCc3cc(OC)c(OC)cc3C2)cc1O
→ 103	108	106	18

Following part
Value order: Sa growth inh	Sa growth inh second temp	GIV-Gai inh	HCMV UL50-53 inh
CCC(=O)NCCc1csc2nc(-c3ccc(Cl)cc3)nn12
→ 95	82	103	-14
Cc1ccc(NC(=O)NCC2CCN(Cc3cc(C)ccc3C)CC2)c(Cl)c1
→ x	x	105	-13
CC(OC(=O)c1ccc(S(=O)(=O)N2CCCc3ccccc32)cc1)C(=O)NCc1ccco1 (configuration not stated)
→ 77	89	x	-12
COC(=O)CN1C(=O)Nc2ccc(Cl)cc2C1c1ccccc1 (configuration not stated)
→ 102	79	99	x
COc1ccc(OC)c(NC(=S)N(CCc2c(C)[nH]c3ccc(F)cc23)Cc2ccco2)c1
→ 137	93	106	x
CN(Cc1ccccc1)C(=O)Cn1ncc2c3ccccc3n(C)c2c1=O
→ 108	94	107&100	2&-3
CC(C)Cn1cc(C(=O)N2CCN(c3ccccc3F)CC2)c2c3ccccc3n(C)c2c1=O
→ 96	63	105	5
O=C(CCN1N=C(c2ccccc2)CCC1=O)NCc1ccccc1Cl
→ 108	101	111	0
Cc1ccc(C(=O)COc2ccc(-c3cnc4ccccc4n3)cc2)cc1
→ 104	79	97	-19
Cc1ccc(-c2nc3ccccn3c2Nc2ccccc2C)s1
→ 99	87	104	-25

(more compounds)
SMILES,Sa growth inh,Sa growth inh second temp,GIV-Gai inh,HCMV UL50-53 inh
CC(=O)Nc1ccc(S(=O)(=O)NCCC(=O)N2CCN(c3cccc(C(F)(F)F)c3)CC2)cc1,94,78,x,-32
Cc1ccc(S(=O)(=O)/N=C(/Nc2nc(C)cc(C)n2)N2CCc3ccccc32)cc1,91,77,104,x
COc1ccc(NC(=O)CSc2nc3ccccc3c(=O)n2CC2COc3ccccc3O2)c(OC)c1 (configuration not stated),106,85,101,2
Cc1cccc(NC(=O)c2ccc3c(c2)CCN3S(=O)(=O)c2ccccc2)c1C,104,94,104,-8
COC(=O)C1=C(N)Oc2cc(N(C)C)ccc2C1c1ccccc1OC (configuration not stated),110,93,104,-1
C=CCN(c1ccccc1)S(=O)(=O)c1ccc2c(c1)NC(=O)CS2,x,x,105,-8
OCC(O)C(O)C(O)c1cnc2ccccc2n1 (configuration not stated),62,90,x,-36
Cc1nc(N2CCN(Cc3ccc4c(c3)OCO4)CC2)nc2c1C(=O)CC(C)C2 (configuration not stated),x,x,99,-29
O=C(CNCCN1CCOCC1)N1CCc2ccccc2C1,92,93,x,-22
Clc1cc2c(c(C[n+]3ccccc3)c1)OCOC2,104,90,103,-17
Cc1cc(Br)c2c(c1)/C(=C1/SC(=S)N(N)C1=O)C(=O)N2C,105,88,104,-9
CCN(C(=O)CSc1nnc(COc2ccccc2)o1)c1ccccc1,106,98,107,5
COc1ccc(CNC(=O)c2ccc3c(c2)OCCO3)cc1,102,105,103,-15
O=C(Nc1cccc(Cl)c1)c1ccc2nncn2c1,x,x,102,-41
O=S(=O)(/C=C/c1ccccc1)N1CCN(c2ncnc3sccc23)CC1,100,90,x,-10
O=c1[nH]cnc2[nH]ncc12,88,82,106,-16&6&-22&-56&-17
CCSc1nnc2n(-c3ccccc3)c(=O)c3c4c(sc3n12)CCCC4,88,93,101,12
O=c1cc(CSc2nc3ccccc3[nH]2)nc2sccn12,97,78,105,7
COc1cc(C)c(C)cc1S(=O)(=O)Nc1cccc(-c2ccc(N3CCOCC3)nn2)c1,109,90,104,x
COc1ccc(/C=C2/SC(=O)N(CCC(=O)Nc3ccc(C)cc3)C2=O)cc1OC,x,x,106,-19

More results follow.
SMILES,Sa growth inh,Sa growth inh second temp,GIV-Gai inh,HCMV UL50-53 inh
O=C(CCN1C(=O)c2ccccc2C1=O)Oc1cccc2cccnc12,-0.6*,-0.2*,x,-34
O=C(c1ccco1)N1CCN(C(=O)c2cccc3c2C(=O)N(C2CCCCC2)C3)CC1,88,93,102,x
CCOC(=O)c1cccc(NC(=O)C2CCN(c3nnc(C)c4c(C)n(-c5ccccc5)nc34)CC2)c1,105,90,103,x
Cc1ccc(-c2ccc(N3CCCC(C(=O)Nc4ccc5c(c4)OCO5)C3)nn2)cc1 (configuration not stated),x,x,102,-34
Cc1cc(C)n(CN2CCN(C(=O)c3cccs3)CC2)c(=S)c1C#N,76,75,x,-30
CCN(CC)CCN(C(=O)c1ccco1)c1nc2c(C)cccc2s1,108,100,107,x
CC(Oc1ccc2c3c(c(=O)oc2c1)CCC3)C(=O)O (configuration not stated),x,x,92,-15&-32
Cc1cc(C)n(-c2nc3ccccc3nc2Nc2ccc(C(C)C)cc2)n1,112,90,110,-3
CCOc1ccc(CN(CCc2ccc3c(c2)OCO3)Cc2cccnc2)cc1,69,40,96,-7
CCOc1ccc(CCNc2nnc3c4ccccc4n(CC)c3n2)cc1,93,84,102,x
CS(=O)(=O)c1sc(C(N)=O)c2c1C=CCC2,108,80,98,-24
COc1cc(C2NC(=O)NC(C)=C2C(=O)OC2CCCC2)ccc1OCc1ccccc1 (configuration not stated),x,x,102,-20
CCOC(=O)c1[nH]c(Cc2[nH]c(C(=O)OCC)c(C)c2CC(=O)OC)c(CCC(=O)OC)c1C,100,102,102,-31
COc1ccc(C(=O)COc2c(F)c(F)cc(F)c2F)c(OC)c1,77,96,x,-8
O=C(CSCc1ccc(F)cc1)Nc1ccc(N2CCOCC2)cc1N1CCOCC1,93,91,x,-6
COc1ccc(C(=O)Nn2c(-c3ccc(Br)cc3)nc3ccccc3c2=O)cc1OC,x,x,107,-19
Cc1cc(C)c(C)c(S(=O)(=O)N2CCN(CN3C(=O)CCSC3=O)CC2)c1C,92,84,x,-21
CCOC(=O)c1c(NC(=O)COc2ccc(Cl)cc2Cl)sc(C(=O)Nc2ccc(C)cc2C)c1C,x,x,102,-2
COc1ccc(NC(=O)c2cc3c(COC(C)=O)cnc(C)c3oc2=O)cc1,x,x,105,-90
COc1ccc(C(=O)/C=C/Sc2nccc(C)n2)cc1,65,86,94,-21

Part of the list above, field by field.
COC(=O)CC1(c2ccc(Cl)cc2)C(=O)c2ccccc2C1=O
  Sa growth inh: 89
  Sa growth inh second temp: 85
  GIV-Gai inh: 97
  HCMV UL50-53 inh: x

S=c1[nH]nc(Nc2ccccc2)s1
  Sa growth inh: 77
  Sa growth inh second temp: 64
  GIV-Gai inh: 97
  HCMV UL50-53 inh: -38

Additional compounds.
SMILES,Sa growth inh,Sa growth inh second temp,GIV-Gai inh,HCMV UL50-53 inh
COc1ccc(-c2c(C(F)(F)F)oc3c(CN4CCC(C)CC4)c(O)ccc3c2=O)cc1OC,x,x,98,-15
CC1=C(C(=O)Nc2cccc(C(=O)N3CCN(C4CCCCC4)CC3)c2)SCCO1,96,89,104,-22
Cc1cccc(-n2cnc3cc(C(=O)NCC4CCCO4)ccc32)c1 (configuration not stated),88,85,100,x
CC1CN(C(=O)Cc2cccs2)CC(C)O1 (configuration not stated),110,89,106,0
O=C(C1CC1)N1CCc2cc(Br)cc(S(=O)(=O)N3CCN(c4ccccc4)CC3)c21,97,84,98,-20
O=C(O)CSCCn1cccn1,75,107,100,18
Cc1ccc(NC(=O)c2cc3ccccc3oc2=N)cc1,107,81,104,x
Cc1cccc2cc(CNCc3ccco3)c(=O)[nH]c12,76,95,96,-8
CC1CCCC(NC(=O)Cn2ncc3c(Cl)cccc32)C1C (configuration not stated),100,95,105,x
CCOC(=O)c1cccc(NC(=O)c2cc(S(=O)(=O)N3CCCC(C)C3)cn2C)c1 (configuration not stated),82,82,100,x
CC(C)(CC(=O)O)CC(=O)Nc1ccc(Cl)cc1Cl,107,92,107,-16
CC1CCCCN1C(=O)CC(=O)N1CCCCC1C (configuration not stated),94,88,x,-8
COc1ccc(N=C2C(=O)Nc3ccccc32)cc1,86,74,99,-16
CCS(=O)(=O)N1CCN(c2cc(-c3cccc(C)c3)ncn2)CC1,x,x,97,-7
O=c1c2[nH]c3ccccc3c2ncn1CCN1CCN(Cc2ccccc2)CC1,110,88,105,-14
CCOc1ccc(-n2cnnn2)cc1S(=O)(=O)NC1CC1,104,93,x,3
CCCOC(=O)C1=C(C)NC2=C(C(=O)CC(c3ccc(OC)c(OC)c3)C2)C1c1ccc(OCC)c(OC)c1 (configuration not stated),x,x,105,-29
Nc1ccccc1SCC1=NNC(=O)c2ccccc2O1,x,x,96,0
O=C(O)c1ccccc1N(Cc1ccccc1)C(=O)c1cccs1,97,103,x,18
CCC(=O)NC(c1ccco1)c1c(OC(C)=O)ccc2ccccc12 (configuration not stated),109,81,97,x

Remaining list, next part
SMILES,Sa growth inh,Sa growth inh second temp,GIV-Gai inh,HCMV UL50-53 inh
CSc1nc2ccccc2n1CC(=O)N(c1ccccc1)C(C)C,106,88,x,-11
Fc1cccc(-c2nc(-c3ccccc3)no2)c1,100,95,99,-46
Cc1ccc(C)n1-c1ccc(-c2nnco2)cc1,87,100,x,2
CS(=O)(=O)CS(=O)(=O)Nc1cc(Cl)cc(Cl)c1,104,64,96,1
C=C(c1ccccc1O)n1ccnc1,100,94,100,-11
CN(Cc1ccco1)C(=O)C1CCCN1S(=O)(=O)c1cccc2nsnc12 (configuration not stated),111,93,106,x
Cn1c(/C=C/N2CCOCC2)c(C(=O)c2ccc(Br)cc2)c(=O)n(C)c1=O,104,83,102,-18
O=C(NC(OCc1ccccc1)(C(F)(F)F)C(F)(F)F)c1ccccc1,90,87,95,-6
